Env fusion inh = inhibitors of HIV-1 Env-driven cell-cell fusion, primary screen, HeLa-JRFL effector, CEM21 target cells, luciferase | inhibition, % at 12.3 µM | actives 1.1% (n = 360,000);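 active = mean replicate inhibition score of at least 50 and every replicate individually at or above 50; inconclusive = only one of the two criteria met; inactive = mean below 50 and not all replicates reaching 50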;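 also: 0% = plate neutral controls and 100% = maraviroc near 300 nM; one replicate is shown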
MT1-MMP act inh = blockers of MT1-MMP proenzyme processing, primary screen, HT1080 RFP-PRO-GFP cells, GFP/RFP fluorescence | GFP/RFP ratio fluorescence, overnight; percent of plate control window, DMSO zero | GFP/RFP ratio change, % at 20 µM | actives 0.061% (n = 360,000);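 active = GFP/RFP ratio change of at least 30% with cell ATP level not reduced by more than half and red fluorescence within 50% of control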; also: strong numbers were not always called active
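Assay system: HT1080 RFP-PRO-GFP cells. Benchmarks: DMSO vehicle wells and RFP-L50D-GFP reporter cell wells. Times: overnight cell settling, then overnight compound exposure, 37 °C, 5% CO2. Compound: 20 µM single dose, 1% DMSO. Read-out basis: GFP/RFP fluorescence ratio.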
PABP polyA inh = PABP poly(A) RNA binding inhibitors, primary screen, biochemical, fluorescence polarization, uHTS | inhibition, % at 35 µM | actives 1% (n = 290,000);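 active = 50% or more with normal probe brightness, or confirmed in later tests; inconclusive = above 50% with abnormal brightness, or retests that disagree; inactive = below 50% or failed in later tests; about a fifth of its hits are not listed in these tables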;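 also: calls also rest on retests at 20 µM and on dose response follow-up; controls were probe without protein and protein plus probe with vehicle; some compounds called inactive have numbers as strong as hits; many hits fall short of the cut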
Rce1 inh = yeast Rce1p protease inhibitors, primary screen, biochemical, fluorescence, cell-free homogeneous | yeast membranes, quenched prenylated peptide cleavage fluorescence | calls only | actives 0.27% (n = 290,000);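 active = fall in fluorescence gain of 50% or more versus controls, with final raw signal at or below 3038400; inconclusive = same 50% fall but final raw signal above 3038400; inactive = fall in fluorescence gain under 50%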;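 also: plate controls were neutral control wells for no effect and wells lacking membranes for full effect; tested at 10 µM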
Target sequence (Q03530 whole entry, looked up): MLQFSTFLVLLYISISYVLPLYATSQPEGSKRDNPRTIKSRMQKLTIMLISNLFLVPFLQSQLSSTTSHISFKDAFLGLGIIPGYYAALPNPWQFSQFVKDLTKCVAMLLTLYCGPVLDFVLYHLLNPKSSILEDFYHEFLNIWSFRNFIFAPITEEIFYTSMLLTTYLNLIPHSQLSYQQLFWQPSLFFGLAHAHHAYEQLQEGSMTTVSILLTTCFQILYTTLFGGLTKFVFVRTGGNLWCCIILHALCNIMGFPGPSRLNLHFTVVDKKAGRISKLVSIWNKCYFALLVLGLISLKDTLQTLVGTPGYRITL
Yeast UUG start = modulators of yeast start codon fidelity, primary screen, whole organism, S. cerevisiae, single point, plate reader. S. cerevisiae UUG-firefly luciferase reporter, luminescence/redox ratio. activity score, % at 18.7 µM. actives 0.13% (n = 350,000). AID 602363, 2012;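 active = replicate mean at a twofold rise or more, about +100% in these data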;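 also: firefly luciferase made from a UUG start codon reports start codon fidelity; reporter light over untreated wells divided by growth signal over untreated wells; some hits fall short of that in this replicate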
eIF4H inh = human eIF4H binding inhibitors, primary screen, translation initiation inhibitor project, biochemical, uHTS, fluorescence polarization; Eukaryotic translation initiation factor 4H (Homo sapiens), Q15056; eIF4H fluorescence polarization binding assay; inhibition, % at 35 µM; actives 0.94% (n = 290,000); AID 2012, 2009;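 active = 50% or more with normal probe brightness, or confirmed in later tests; inconclusive = above 50% with abnormal brightness, or retests that disagree; inactive = below 50% or failed in later tests; about a fifth of its hits are not listed in these tables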;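 also: calls also rest on retests at 20 µM and on dose response follow-up; 0% = protein and probe with vehicle and 100% = probe without protein; strong numbers were not always called active; many hits fall short of the cut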
CSC inhib = cancer stem cell viability inhibitors, primary screen, luminescence; inhibition, % at 7.5 µM; cancer stem cell-like cells viability; actives 1.1% (n = 300,000);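 active = mean at 75% or more and at least half the replicates too; inconclusive = mean and replicates disagree; tested in HMLE shEcad cells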;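 also: 0% = median of negative and 100% = median of positive control wells; the first replicate is given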
eIF4H inh retest = further read-out of eIF4H inh, marked with its call; inhibition, %; compound at 20 µM; confirmation average;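 mean of two retest wells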
PABP polyA inh retest = second read-out of PABP polyA inh, no call of its own (marks repeat the call); inhibition, %; compound at 20 µM; confirmation repeats;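 mean of two retest wells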
MT1-MMP act inh RFP = recorded beside MT1-MMP act inh, whose call it bears; RFP signal change, %; measured here: RFP expression control read;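 0 = vehicle wells; hits needed this value within 50% of zero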
An asterisk follows results filed as active; i = inactive; ? = inconclusive; . = not tested or not shown. Random draw from the library, and some 3% of all compounds hit somewhere here.

SMILES	Env fusion inh	MT1-MMP act inh	MT1-MMP act inh RFP	PABP polyA inh	Rce1 inh	Yeast UUG start	eIF4H inh	CSC inhib	others
COc1ccc(Cc2cc(-c3ccc(F)cc3)n[nH]c2=O)cc1	19	1	-3	6	i	-9	2	0
O=S(=O)(c1ccc2c(c1)CCC2)N1CCNCC1	7	-2	1	.	.	5	.	.
Cc1cccc2nc(-c3cccnc3)c(NCCC(C)C)n12	-4	-3	-4	-5	i	.	-5	7
Cc1ccc2c(C(=O)CNc3nncs3)c(C)[nH]c2c1	-1	-5	-4	4	i	.	-5	-10
CCOC(=O)C(C)Sc1nnc(Cn2c(=O)sc3ccccc32)n1-c1ccccc1 (stereo unspecified)	-9	8	1	-8	i	-3	2	-11
CC1=NN(c2ccccc2)C(=O)C1(C)C	.	2	3	0	i	-14	2	-19
CCOc1ccc(NC(C)=O)cc1[N+](=O)[O-]	-6	1	4	-12	i	.	-2	0
COc1cccc2c1N1C(=O)c3c(C(=O)O)cccc3C1CC2(C)C (stereo unspecified)	.	11	5	3	i	17	3	.
COCCn1cnnc1SCC(=O)Nc1ccccc1C(=O)Nc1ccc2c(c1)OCO2	-76	7	1	52	i	2	5.6*	-12	eIF4H inh retest=77*;PABP polyA inh retest=38
CC1(C)C2CCC1(CS(=O)(=O)Nc1ccccc1)C(=O)C2 (stereo unspecified)	-19	3	4	8	i	.	0	-7
CS(=O)(=O)N1CCCC(C(=O)NCc2ccccn2)C1 (stereo unspecified)	.	-1	0	-13	i	-21	-2	13
O=c1nc2n(c3ccc(Br)cc13)CCS2	-64	4	4	2	i	-11	-4	-17
CCCCC(=O)OCC(=O)c1cc(C)n(-c2c(C)n(C)n(-c3ccccc3)c2=O)c1C	0	-1	-1	3	i	.	-2	-4
CNc1nc(N)c(C(=O)C23CC4CC(CC(C4)C2)C3)s1	3	-6	-1	-1	i	.	6	48
CCC(=NC(C)c1ccccc1)c1c(O)n(C)c(=O)n(C)c1=O (stereo unspecified)	60*	10	-16	-9	i	-7	-12	2
CCOC(=O)c1cnc(SC)nc1Oc1cccc(NS(=O)(=O)c2ccc(F)cc2)c1	11	-6	-3	1	i	-5	-1	7
COc1cc(/C=C(\C#N)C(=O)NCCc2ccccc2)cc(OC)c1O	-3	-122	4	7	i	.	42	-1
Cc1cccc(NC(=O)C(=O)NCC2CCCN2S(=O)(=O)c2ccccc2)c1 (stereo unspecified)	17	2	-7	.	i	-6	.	-2
COc1ccc(-c2cccc(NS(=O)(=O)c3ccc([N+](=O)[O-])cc3)c2)nn1	-3	0	-6	.	i	-8	.	-14
CO[C@H]1CN(C)C(=O)c2ccc(NC(=O)C3CCC3)cc2OC[C@H](C)N(Cc2ccccn2)C[C@@H]1C	-24	-1	2	.	.	-19	.	.
COc1ccc(Cl)cc1NC(=O)Cn1nnc(C(=O)NCc2ccc3c(c2)OCO3)c1N	3	5	-1	-8	i	-16	-12	-5
COc1ccc(NC(=O)CC2Nc3cccc4cccc(c34)NC2=O)cc1 (stereo unspecified)	8	3	0	?	i	.	?	-18
COc1ccc(NC(=O)CCC(=O)c2cccs2)c(OC)c1	.	1	2	6	i	1	14	-13
COc1ccc(NC(=O)[C@@]2(CC(=O)O)CC(/C=C/c3ccccc3)=NO2)cc1	5	-3	0	2	i	-18	4	-14
CCOc1ccc(S(=O)(=O)N2CCC(C(=O)OCc3cccc(OC)c3OC)CC2)cc1	-7	-1	-3	.	.	4	.	6
CCN1CCN(c2ccc(S(=O)(=O)N3CCCCC3)cc2NC(=O)c2ccc([N+](=O)[O-])o2)CC1	-16	-1	-7	.	i	1	.	8
Cc1nnc(SCC(=O)NNC(=O)COc2ccc(Cl)cc2)n1C	-1	4	5	-2	i	-6	6	.
COc1ccc(-c2cccc(C3CC=CC4C3C(=O)N(Cc3ccccc3)C4c3ccc4ccccc4c3)c2)cc1 (stereo unspecified)	25	-3	-14	-15	i	-10	3	25
Cc1ccc(SCC(=O)NCCc2ccccc2)cc1	-3	-4	1	10	i	-14	0	-14
CCC(=O)Nc1nnc(SCC(=O)NCc2ccc3c(c2)OCO3)s1	18	1	1	8	i	-21	-4	-6
CC(C)Cn1c(/C=C/c2ccco2)nc2ccccc21	3	-12	1	-12	i	.	83	-1	eIF4H inh retest=-7;PABP polyA inh retest=2
CC1(c2ccc3c(c2)OCO3)NC(=O)N(CC(=O)Nc2ccc(N3CCOCC3)cc2)C1=O (stereo unspecified)	14	-1	-3	-4	i	-14	-3	-11
Cc1nnsc1C(=O)N1CCCC(Nc2ccc(C(C)C)cc2)C1 (stereo unspecified)	-1	2	-3	-6	i	25	-4	7
CCN1CCN(c2nc3ccccc3nc2C(C#N)C(=O)OC2CCCCC2)CC1 (stereo unspecified)	6	-11	-6	13	.	-5	11	.
COCCNC(=O)c1ccc(Cn2c(=S)[nH]c3cc4c(cc3c2=O)OCO4)cc1	-30	-4	-2	-1	i	-19	-4	.
COCCCNC(=S)N(CCO)Cc1cc2cc3c(cc2[nH]c1=O)OCO3	-11	-3	5	-7	i	20	-10	1
C=CCn1c(C)cc(C(=O)CSc2nnc(Cc3ccccc3)o2)c1C	-52	-1	-1	7	.	-7	20	-12
COc1ccc(CNC(=O)c2csc3c2CCCC3)cc1	-2	-2	-1	.	.	-6	.	-5
CCc1ccc(NC(=O)Cn2ncn3c(cc4ccccc43)c2=O)cc1	-1	-1	-2	1	i	-10	-10	-4
COc1ccccc1NC(=O)CCCCCN1C(=O)c2cccc3cccc(c23)C1=O	9	8	0	-7	.	-14	-6	11
Cc1ccc(S(=O)(=O)N(C)C)cc1NC(=S)NNC(=O)C1CC1	21	1	1	-12	i	.	-2	-7
CCN(C[C@H]1N[C@@](Cc2ccccc2)(C(=O)OC)[C@H]2C(=O)N(C)C(=O)[C@@H]12)C(=O)Nc1ccccc1	4	5	7	.	.	-26	.	-14
Cc1cccc(N(C(=O)CCC(=O)Nc2cc(C)on2)C(C(=O)NC2CCCC2)c2cccnc2)c1 (stereo unspecified)	-17	0	4	11	i	19	-4	-1
O=C(O)c1ccc(N2CCCS2(=O)=O)cc1	-5	4	2	5	.	4	-6	6
O=C1[C@H]2[C@@H](C(=O)N1c1cccc3ccccc13)C1(C(=O)c3ccccc3C1=O)N1CCC[C@@H]21	9	-9	2	5	i	-7	0	-12
COC(=O)C(C)Sc1nc2c(cnn2-c2ccc(Cl)cc2)c(=O)[nH]1 (stereo unspecified)	9	3	5	-3	i	3	-1	1
C=CCn1c(SCC(=O)N2CCCC2=O)nc2sc(CC)cc2c1=O	3	3	-10	.	.	-41	.	-7
Cc1cc2cc(CNC(=O)c3ccc(S(=O)(=O)N4CCCCC4)cc3)ccc2n1C	-187	40*	47*	45	i	-8	-20	-14
Nc1ccccc1Nc1cc(-c2cccc(Cl)c2)nn1-c1ccccc1	.	-2	-3	-9	i	.	10	47
Cc1cccc(NC(=O)CCSc2ccccc2)c1C	2	3	-6	-5	i	4	0	2
N#C/C(=C\c1cc([N+](=O)[O-])c(N2CCOCC2)cc1N1CCOCC1)c1nc2ccccc2[nH]1	.	-1	-2	-3	i	-20	-2	-9
Cc1nnc(Sc2cc(C(=O)NCCCN(C)Cc3ccccc3)c3ccccc3n2)s1	2	7	2	99	i	.	3	-10	eIF4H inh retest=-14;PABP polyA inh retest=10
CCSc1nnc(NC(=O)C2C3C=CC(C3)C2C(=O)O)s1 (stereo unspecified)	-26	3	2	-2	i	-22	0	-2
COc1ccc(/C(N)=N/O)c(OC)c1	5	2	7	-8	i	-16	0	6
O=C(Nc1cccc(-c2csc(-c3ccccc3)n2)c1)c1cccs1	.	7	-1	0	i	.	2	192*
Cn1cc(C(=O)c2ccc(Cl)cc2Cl)cc1C(=O)N/N=C(\N)COc1ccc(F)cc1	.	4	-3	-10	i	.	9	15
CC(C)(C)c1ccc(C(=O)OCC(=O)N2CCC(c3ccccc3)=N2)cc1	.	1	1	.	.	-5	.	0
O=C(N/N=C1/CC2C=CCC12)c1ccco1 (stereo unspecified)	-13	2	7	3	i	.	-8	-5
O=C(c1ccccc1)c1cccc(NC(=O)c2ccc(Br)o2)c1	.	4	-4	-5	i	-10	-5	14
Cc1ccc(C)c(Nc2nc(-c3cccnc3)cs2)c1	-3	-7	-10	-10	i	-19	-5	13

Two entries drawn at random from those above:
SMILES	Env fusion inh	MT1-MMP act inh	MT1-MMP act inh RFP	PABP polyA inh	Rce1 inh	Yeast UUG start	eIF4H inh	CSC inhib	others
Nc1ccccc1Nc1cc(-c2cccc(Cl)c2)nn1-c1ccccc1	.	-2	-3	-9	i	.	10	47
COc1ccc(/C(N)=N/O)c(OC)c1	5	2	7	-8	i	-16	0	6

Continued.
SMILES	Env fusion inh	MT1-MMP act inh	MT1-MMP act inh RFP	PABP polyA inh	Rce1 inh	Yeast UUG start	eIF4H inh	CSC inhib	others
FC(F)(F)c1ccc2c(c1)C1C=CCC1C(c1ccncc1)N2 (stereo unspecified)	24	-3	7	-1	i	.	24	.
Cc1cccc(C)c1NC(=O)c1cccnc1	-8	1	-4	1	i	-14	-4	-8
Cc1[nH]n(-c2ccccc2)c(=O)c1C(=O)Nc1ccccc1	-32	-5	0	6	i	-19	-9	23
NNC(=O)C1CC1(c1ccccc1)c1ccccc1 (stereo unspecified)	1	-8	-1	-3	i	.	2	-1

Gathered by group: the entries above with an aryl thioether with sulfur outside any ring
SMILES	Env fusion inh	MT1-MMP act inh	MT1-MMP act inh RFP	PABP polyA inh	Rce1 inh	Yeast UUG start	eIF4H inh	CSC inhib	others
CCOC(=O)C(C)Sc1nnc(Cn2c(=O)sc3ccccc32)n1-c1ccccc1 (stereo unspecified)	-9	8	1	-8	i	-3	2	-11
COCCn1cnnc1SCC(=O)Nc1ccccc1C(=O)Nc1ccc2c(c1)OCO2	-76	7	1	52	i	2	5.6*	-12	eIF4H inh retest=77*;PABP polyA inh retest=38
CCOC(=O)c1cnc(SC)nc1Oc1cccc(NS(=O)(=O)c2ccc(F)cc2)c1	11	-6	-3	1	i	-5	-1	7
Cc1nnc(SCC(=O)NNC(=O)COc2ccc(Cl)cc2)n1C	-1	4	5	-2	i	-6	6	.
Cc1ccc(SCC(=O)NCCc2ccccc2)cc1	-3	-4	1	10	i	-14	0	-14
CCC(=O)Nc1nnc(SCC(=O)NCc2ccc3c(c2)OCO3)s1	18	1	1	8	i	-21	-4	-6
C=CCn1c(C)cc(C(=O)CSc2nnc(Cc3ccccc3)o2)c1C	-52	-1	-1	7	.	-7	20	-12
COC(=O)C(C)Sc1nc2c(cnn2-c2ccc(Cl)cc2)c(=O)[nH]1 (stereo unspecified)	9	3	5	-3	i	3	-1	1
C=CCn1c(SCC(=O)N2CCCC2=O)nc2sc(CC)cc2c1=O	3	3	-10	.	.	-41	.	-7
Cc1cccc(NC(=O)CCSc2ccccc2)c1C	2	3	-6	-5	i	4	0	2
Cc1nnc(Sc2cc(C(=O)NCCCN(C)Cc3ccccc3)c3ccccc3n2)s1	2	7	2	99	i	.	3	-10	eIF4H inh retest=-14;PABP polyA inh retest=10
CCSc1nnc(NC(=O)C2C3C=CC(C3)C2C(=O)O)s1 (stereo unspecified)	-26	3	2	-2	i	-22	0	-2
